Compound activity (PubChem)
gsp ag: qHTS for Agonist of gsp, the Etiologic Mutation Responsible for Fibrous Dysplasia/McCune-Albright Syndrome: qHTS. gsp mutant cells, cAMP HTRF, 30 min; control for the full effect not named in the record. Potency, µM (highest dose often 76.9 µM), for the others: at the top dose activation (cAMP increase), actives largely listed as activators. actives 0.13% (n = 340,000). AID 624287, 2012; active = well fitted activation curve with a large enough effect; inconclusive = small, poorly fitted or top-dose-only effect, or another doubt; inactive = no such curve, though single readings can be large or run the other way; cell line not stated here;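 note: phosphodiesterase inhibitor Ro 20-1724 added with compounds to block cAMP breakdown; potency is the fitted concentration of half-maximal effect; nearly all actives have a fitted effect of over 60% in size; about a fifth of the inactives were tested at one dose only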
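Cells stably selected in G418 were plated at 2000/well, grown 16-24 hr, then given compounds in DMSO with the PDE inhibitor […] (300 uM solution added) for 30 min at 37C; cAMP was read by HTRF.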
ClpP mod: qHTS Assay for Activators of ClpP. purified B. subtilis ClpP, FRET peptide cleavage, 20 min. Potency, µM (highest dose often 57.5 µM), without a hit: top-dose activity change, negative = active. actives 1.9% (n = 340,000); active = well fitted falling curve with a large enough effect; inconclusive = small, poorly fitted or top-dose-only effect; inactive = no such curve, though single readings can be large or run the other way; note: potency is the fitted concentration of half-maximal effect; the source files actives as falling curves though it sought activators and does not explain the sign; nearly all actives have a fitted effect of over 65% in size; many hits overshoot -100%
Target sequence (P80244 whole entry, looked up): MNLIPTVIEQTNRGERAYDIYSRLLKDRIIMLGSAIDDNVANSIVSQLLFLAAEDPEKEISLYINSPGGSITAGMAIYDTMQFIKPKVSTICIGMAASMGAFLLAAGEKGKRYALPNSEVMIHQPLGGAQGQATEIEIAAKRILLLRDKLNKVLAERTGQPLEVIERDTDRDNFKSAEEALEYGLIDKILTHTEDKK
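Buffer: 100 mM Tris/HCl pH8, 100 mM KCl, 0.05% low protease BSA, 2.5% glycerol, 0.01% Tween-20. ClpP 10 microg/mL final; 20 min RT; delta FRET normalized to ADEP and DMSO controls.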
Menin-MLL FL inh: qHTS Assay for Inhibitors Targeting the Menin-MLL Interaction in MLL Related Leukemias: Competition With Fluorescein Labeled MLL-derived Peptide. Fluorescence polarization, fluorescein-MLL peptide displacement from menin. 290,000 tested, under 10 active. FP activity change, % at 61.4 µM; inconclusive = falling polarisation curve, or a change in total fluorescence; inactive = total fluorescence flat and polarisation flat or rising; no compound was filed as active; the % refers to the polarisation; negative = inhibition;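 note: % of control where 0% means no effect; inhibitors lower the polarisation; unlabelled MLL peptide was the positive control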
TRPV1 potentiator: HTS Assay for Compounds that Act as Potentiators of the Vanilloid Receptor 1 | TRPV1-expressing cells, Fluo-8 calcium influx, capsaicin EC20 potentiation; host cell line not named in the record; control for the full effect not named in the record | actives 0.02% (n = 320,000) | potentiation, % at 8.33 µM; active means potentiation above 80%; inconclusive means 30% to 80%; inactive means below 30%; note: 0% is about no effect
Target sequence (Q8NER1 whole entry, looked up): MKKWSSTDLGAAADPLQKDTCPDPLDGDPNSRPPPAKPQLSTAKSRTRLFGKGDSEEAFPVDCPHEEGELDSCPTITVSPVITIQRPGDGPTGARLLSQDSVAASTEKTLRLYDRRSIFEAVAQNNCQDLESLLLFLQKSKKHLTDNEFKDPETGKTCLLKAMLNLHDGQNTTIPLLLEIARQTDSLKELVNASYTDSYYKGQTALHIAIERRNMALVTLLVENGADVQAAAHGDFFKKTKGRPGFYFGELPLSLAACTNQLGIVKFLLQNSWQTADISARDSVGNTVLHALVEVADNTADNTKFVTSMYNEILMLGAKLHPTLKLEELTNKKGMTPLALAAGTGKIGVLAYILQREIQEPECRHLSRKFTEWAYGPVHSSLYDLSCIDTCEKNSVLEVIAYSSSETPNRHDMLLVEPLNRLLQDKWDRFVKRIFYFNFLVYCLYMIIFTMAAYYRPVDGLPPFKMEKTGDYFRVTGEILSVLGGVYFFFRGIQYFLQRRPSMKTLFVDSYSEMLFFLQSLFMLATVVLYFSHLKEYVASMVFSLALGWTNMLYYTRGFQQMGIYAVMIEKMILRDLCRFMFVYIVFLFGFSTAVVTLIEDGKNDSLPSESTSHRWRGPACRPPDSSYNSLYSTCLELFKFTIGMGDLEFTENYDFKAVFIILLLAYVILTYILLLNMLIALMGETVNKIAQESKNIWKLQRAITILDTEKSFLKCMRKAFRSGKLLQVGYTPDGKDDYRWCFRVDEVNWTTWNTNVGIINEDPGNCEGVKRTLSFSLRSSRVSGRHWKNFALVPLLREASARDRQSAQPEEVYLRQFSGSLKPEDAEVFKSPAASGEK
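Fluo-8 calcium influx in TRPV1-expressing cells, kinetic read (ex 480/em 520 nm). Compound added and read 3 min for agonist activity, followed by capsaicin at EC20 final and 2 min further read for enhancement.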
CtBP-E1A blk: qHTS Assay for Inhibitors of the CtBP/E1A Interaction; actives 0.49% (n = 340,000); AID 651724, 2012; activity change, % (no concentration beside the values); AlphaScreen GST-E1A/His-CtBP binding, 1536-well; stronger effect = lower value; control for the full effect not named in the record; CtBP / adenovirus E1A interaction (AlphaScreen); in the data active means activity change below about -65%; inconclusive means about -30% to -65%; inactive means above about -30%; note: % is set by controls: 0 for no effect and ±100 for the full control effect; compound concentration not given in the record
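AlphaScreen with 125 nM GST-E1A and 125 nM His-CtBP (5X stocks) in Tris pH 8.0, 300 mM NaCl, BSA, Tween 20, TCEP. Compounds preincubated 2 h at 37 deg C, then glutathione donor/nickel acceptor beads added for 1 h at 37 deg C in dark.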
Sfp inh: qHTS Assay for Inhibitors of Bacillus subtilis Sfp phosphopantetheinyl transferase (PPTase); Biochemical Sfp PPTase activity, qHTS; Potency, µM, inactives show max response, negative = inhibition, most hits filed as inhibitors; actives 3.5% (n = 310,000); active = well fitted inhibition curve with a large enough effect; inconclusive = small, poorly fitted or top-dose-only effect, or another doubt; inactive = no such curve, though single readings can be large or run the other way;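 note: the enzyme is Sfp with the accession as filed and its product quenches rhodamine fluorescence; potency is the fitted concentration of half-maximal effect; 0% = enzyme reaction without inhibitor and -100% = no enzyme wells; top concentration of the series not given in the record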
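Reaction rates are the 30-min fluorescence difference (ex 525, em 598 nm) in wells containing 15 nM Sfp, 5 uM rhodamine-CoA and 12.5 uM BHQ-2-YbbR at pH 7.6 with 10 mM MgCl2.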
gsp antag: qHTS for Antagonists of gsp, the Etiologic Mutation Responsible for Fibrous Dysplasia/McCune-Albright Syndrome: qHTS; gsp-mutant cells, cAMP HTRF, 30 min; control for the full effect not named in the record; Potency, µM (doses to about 76.9 µM), for the others: at the highest dose activity change, negative = inhibition, most hits filed as inhibitors; actives 0.4% (n = 340,000); AID 624288, 2012; active = falling curve of any shape with a large fitted effect; inconclusive = falling curve, mostly with a smaller effect; inactive = flat or rising curve; cell line not stated here;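 note: intracellular cAMP measured with PDE inhibitor Ro 20-1724 present during compound exposure; potency is the fitted concentration of half-maximal effect; % is set by controls: 0 for no effect and ±100 for the full control effect; nearly all actives have a fitted effect of over 65% in size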
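HTRF cAMP read-out (cAMP-d2 plus anti-cAMP antibody-K in lysis buffer, 30 min RT). Before lysis, cells are exposed to compounds with […] for 30 min at 37C in DPBS containing Ca/Mg, BSA and Tween 20.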
* hit, by the source's call; ? = inconclusive; . = not tested or not shown; [ ] = another dose, or the depositor's remark.

#1 COC(=O)c1cc(-c2ccc(OC)c(OC)c2)n[nH]1
#2 CCS(=O)(=O)c1ccc(C(=O)NC)c(Cl)c1Cl
#3 Cc1ccc2[nH]c(CSc3ccccc3)cc(=O)c2c1
#4 Cn1c2ccccc2c2n[nH]c(=O)nc21
#5 Cc1nc(NCc2ccccn2)c2c3c(sc2n1)CCCC3
#6 Cc1ccc(NC(=O)c2cc3ccccc3oc2=O)cc1S(=O)(=O)N(C)C
#7 CCOC(=O)C1CCN(S(=O)(=O)Cc2ccccc2)C1=O (stereo not given)
#8 O=C(Nc1ccc(F)cc1)c1cc2c(s1)CCCC2

Screen / compound no.	1	2	3	4	5	6	7	8
gsp ag	-22%	0%	-2%	8%[15.4 µM]	?	13%[15.4 µM]	-4%	-3%[15.4 µM]
ClpP mod	1.4%	0.9%	.	.	.	.	-0.7%	.
Menin-MLL FL inh	0.8	-0.2	-17	-2.0	0.6	0.0	?	1.0
TRPV1 potentiator	23	-7	6	-13	-10	-1	-6	0
CtBP-E1A blk	-9	-10	1	-2	-8	29	-3	5
Sfp inh	10%	-15%	8%	12%	8%	-4%	-2%	-2%
gsp antag	-5%	12%	-23%	4%	-13%	15%	-3%	-11%

#9 N#Cc1cc2c([nH]c1=S)CCCCCC2
#10 Cc1ccc(S(=O)(=O)N2CCCN(C(=O)OC(C)(C)C)CC2)cc1
#11 Cn1cnnc1SC(C(=O)Nc1cccc(C(F)(F)F)c1)c1ccccc1 (stereo not given)
#12 COc1cc(CNCCO)cc(Cl)c1OCc1ccccc1Cl
#13 Cc1ccc(C=NNC(=O)c2cc(-c3cccnc3)nc3ccccc23)o1
#14 COCCCNC(=O)c1ccc(N(C)S(C)(=O)=O)cc1
#15 CCOC(=O)C1CCN(C(=O)c2cc(COc3ccc(OC)c4ccccc34)on2)CC1
#16 O=C(CSC1CCCCC1)Nc1nccs1

Screen / compound no.	9	10	11	12	13	14	15	16
gsp ag	16%	-13%[15.4 µM]	-14%	-4%[15.4 µM]	0%	16%	-77%[inhibitor]	-5%[15.4 µM]
ClpP mod	-9.2%	.	-0.3%	.	.	-1.5%	-5.3%	1.3%
Menin-MLL FL inh	-0.4	3.2	1.0	-3.4	.	-0.4	6.7	1.8
TRPV1 potentiator	-2	-5	4	-1	.	-9	3	-7
CtBP-E1A blk	9	-6	-1	1	-30	1	-13	5
Sfp inh	10µM*	8%	-2%	2%	.	8%	-1%	8%
gsp antag	13%	7%	2%	.	19%	10%	-2%	15%

Values by screen from the entries so far.
Compounds 9–13 in gsp ag read 16%, -13%[15.4 µM], -14%, -4%[15.4 µM], 0%

Further records:
#17 NC(=S)N/N=C/c1coc2cc(Cl)ccc2c1=O
#18 N/C(=N\OC(=O)c1ccccc1)c1ccncc1
#19 O=C(Nc1nnc(SCc2c(Cl)cccc2Cl)s1)c1ccc2ncsc2c1
#20 CC(=O)C(N=Nc1ccccc1)(Sc1nnc(-c2ccccc2)n1-c1ccccc1)C(C)=O
#21 CCN(CCn1cccn1)C(=O)c1ccc2nc(Cc3ccc(OC)cc3)oc2c1
#22 Cc1ccc(Cl)cc1NC(=O)c1ccc(Cn2cc(Cl)cn2)cc1
#23 COc1cccc(-c2noc(CCC(=O)NCCc3ccccc3)n2)c1
#24 Cc1ccc(S(=O)(=O)/N=C(\Sc2ccccc2)c2ccccc2)cc1

Screen / compound no.	17	18	19	20	21	22	23	24
gsp ag	1%	-1%	.	5%	20%	7%	24%	2%
ClpP mod	-3.5%	.	.	-1.3%	-0.2%	0.5%	-2.1%	0.3%
Menin-MLL FL inh	6.1	-2.9	10.0	2.5	4.4	3.8	7.0	?
TRPV1 potentiator	-8	-5	3	-9	6	-9	?	-5
CtBP-E1A blk	-4	8	.	-21	-7	5	-4	-3
Sfp inh	17%	2%	-5%	4%	9%	-4%	1%	-20%
gsp antag	-3%	4%	.	-3%	6%	-21%	-7%	1%

#25 COc1cccc(Cn2nnc(C(=O)NCCc3ccc(Cl)cc3)c2N)c1
#26 COc1ccc(CC(=O)NCc2nnc(SCC(=O)Nc3ncc(C)s3)n2C)cc1
#27 O=[N+]([O-])c1cc(/C=N\Nc2nccs2)ccc1O
#28 COC(=O)CSc1[nH]c2ccccc2c1[N+](=O)[O-]
#29 CCOc1cc(C2NC(=O)NC(O)(C(F)(F)F)C2C(=O)c2ccc(Cl)cc2)ccc1O (stereo not given)
#30 CN(c1ccc(OCc2nnc(-c3ccccc3)o2)cc1)S(=O)(=O)c1ccccc1
#31 COC(=O)CC1NCCc2cc(OC)c(OC)cc21 (stereo not given)
#32 O=C(CCN1CCCCO1)N1CCCC(Nc2ccc(F)cc2)C1 (stereo not given)

Screen / compound no.	25	26	27	28	29	30	31	32
gsp ag	0%	6%	.	5%	-68%[inhibitor]	19%	2%	-8%
ClpP mod	-0.7%	-0.5%	.	-5.6%	0.6%	-1.9%	-1.5%	0.7%
Menin-MLL FL inh	2.8	-3.2	-1.7	-3.8	1.6	-0.8	-2.6	-2.9
TRPV1 potentiator	12	4	-3	-4	0	8	-2	-3
CtBP-E1A blk	-11	.	.	.	1	0	10	14
Sfp inh	3%	24%	14µM*	9%	13%	24%	17%	2%
gsp antag	7%	4%	.	-7%	4%	-4%[15.4 µM]	13%	14%

#33 O=S(=O)(c1ccc(NC(=S)N/N=C/c2ccc(N3CCOCC3)cc2)cc1)N1CCOCC1
#34 Cc1cccc(N2CCN(C(=O)CCn3c(=O)[nH]c4ccccc4c3=O)CC2)c1C
#35 CN1CCN(C(=O)c2cnn(-c3ccccc3)c2NC(=O)c2ccccc2Cl)CC1
#36 CCC[C@@H](CN1CCC[C@H]1CN1C(N)=NC[C@@H]1Cc1ccccc1)N1C[C@@H](Cc2ccccc2)N(CCc2ccc(Cl)c(Cl)c2)C1=N
#37 CO/N=C\c1cc(C(=O)c2ccc(Cl)cc2Cl)cn1C
#38 S=C(Nc1ccccc1)Nc1ccc(OCc2ccc(Cl)cc2Cl)cc1
#39 O=C1NC2c3ccccc3CC2O1 (stereo not given)
#40 O=C(O)c1sccc1NC(=O)c1c(Cl)cccc1Cl

Screen / compound no.	33	34	35	36	37	38	39	40
gsp ag	-9%	11%	0%	.	?	?	2%	21%
ClpP mod	-29%	-0.9%	-30%	0.5%	.	0.3%	1.2%	.
Menin-MLL FL inh	2.8	3.9	.	.	4.5	2.3	7.3	-1.7
TRPV1 potentiator	-3	-1	5	.	16	2	-5	22
CtBP-E1A blk	-2	3	-1	-6	-27	5	7	-1
Sfp inh	-2%	-6%	2%	.	-8%	-8%	16%	17%
gsp antag	-2%	-16%	6%	7%	?	-10%	12%	?

#41 COc1ccc(NC(=O)CN(C)S(=O)(=O)c2ccc(Br)s2)cc1
#42 C=CCC1(C#N)C(=S)NC2=C(C(=O)CC(C)(C)C2)C1c1ccc(Br)cc1 (stereo not given)
#43 CC(C)c1ccc(C2C(C(=O)c3ccco3)=C(O)C(=O)N2CC2CCCO2)cc1 (stereo not given)
#44 COc1ccc(OC)c(NC(=O)c2cnc(Nc3ccccc3OC)c3ccccc23)c1
#45 COc1cc(OC)c(Nc2cc(C)nc3nc(C)nn23)cc1Cl
#46 Cc1[nH]n(-c2ccccc2)c(=O)c1/C=N/NC(=O)C(C)C
#47 Cc1ncc([N+](=O)[O-])n1CC(=O)NCCc1ccccc1
#48 COc1ccc(-c2noc(CCCOc3ccc(Cl)cc3Cl)n2)cc1

Screen / compound no.	41	42	43	44	45	46	47	48
gsp ag	-7%[15.4 µM]	-9%	-26%[15.4 µM]	5%[15.4 µM]	?	-36%	?	1%
ClpP mod	-0.6%	?	.	35µM*	-0.8%	1.1%	-1.0%	-4.2%
Menin-MLL FL inh	-11	2.0	-4.1	3.8	1.6	3.1	-5.4	-0.3
TRPV1 potentiator	0	-15	1	7	23	-12	-9	12
CtBP-E1A blk	5	-4	-2	5	-5	21	-12	53
Sfp inh	10%	7%	10%	0%	4%	28%	22%	?
gsp antag	-2%	-11%	-4%	5%	-7%	-4%	4%	-4%

Records above marked active in Sfp inh.
| no. | SMILES | gsp ag | Menin-MLL FL inh | CtBP-E1A blk | Sfp inh | gsp antag |
| --- | --- | --- | --- | --- | --- | --- |
| 9 | N#Cc1cc2c([nH]c1=S)CCCCCC2 | 16% | -0.4 | 9 | 10µM* | 13% |
| 27 | O=[N+]([O-])c1cc(/C=N\Nc2nccs2)ccc1O | . | -1.7 | . | 14µM* | . |

Returning to the listing with the 3 entries that preceded the break.
#46 Cc1[nH]n(-c2ccccc2)c(=O)c1/C=N/NC(=O)C(C)C
#47 Cc1ncc([N+](=O)[O-])n1CC(=O)NCCc1ccccc1
#48 COc1ccc(-c2noc(CCCOc3ccc(Cl)cc3Cl)n2)cc1
#49 Nc1nc2c(ccc3ccccc32)s1
#50 CCOc1ccc(NC(=O)Cn2sc3nc(C)cc(C)c3c2=O)cc1
#51 COc1ccc(-n2nc(C(=O)N3CCCCC3)c3ccccc3c2=O)cc1
#52 N#CCCn1cc(C(CC(=O)c2ccccc2)C(=O)O)c2ccccc21 (stereo not given)

Screen / compound no.	46	47	48	49	50	51	52
gsp ag	-36%	?	1%	?	-2%[15.4 µM]	?	7%
ClpP mod	1.1%	-1.0%	-4.2%	?	.	-3.1%	-1.7%
Menin-MLL FL inh	3.1	-5.4	-0.3	.	6.5	-2.6	1.1
TRPV1 potentiator	-12	-9	12	.	-25	6	?
CtBP-E1A blk	21	-12	53	.	-13	-1	2
Sfp inh	28%	22%	?	.	2.8µM*	3%	13%
gsp antag	-4%	4%	-4%	-6%	-2%	3%[15.4 µM]	-6%
